Screens deposited in PubChem BioAssay by several laboratories.
Beta cell apopt: blocks beta cell apoptosis | INS-1E cytokine-induced death, ATP luminescence, 48 h; percent of positive-control rescue, neutral wells zero | protection from apoptosis, % (concentration not given with the values) | 300,000 compounds, 0.8% hits;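 active = all replicates at 75% or more, or half of them and the mean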;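 also: 0% = cytokine-treated negative control wells and 100% = positive control rescue; higher means more ATP so stronger rescue from cytokine killing; wells of about 40 µL received 100 nL stock; the first replicate is given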
A1 inh: inhibitors of the anti-apoptotic protein A1, read as caspase activation; 330,000 compounds, 0.066% hits; MEF A1-2A-BIM cells, Caspase-Glo 3/7 luminescence, 3 h; percent of clofoctol response, vehicle zero; AID 2462; caspase activation, % (concentration not given with the values);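 active = over half of replicate activation scores above 10%, or exactly half above 10 with the replicate mean above 10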;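 also: wells of about 30 µL received 50 nL stock; many hits fall short of the cut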
B2AR ag: agonists of human beta-2 adrenergic receptor inducing internalization | AID 504454 | P07550 | response, % (no concentration beside the values) | Am2.2-beta2AR cells, FAP receptor internalization, flow cytometry; reference of the scale not given here | 340,000 compounds, 0.43% hits;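 active = response above a set limit, near 3 SD of response in nonfluorescent compounds, cut at about 42% in these data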;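 also: stock transfer was 100 nL into about 11 µL; a reference agonist was the positive control; negative values mostly stem from fluorescent compounds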
Target sequence (P07550 whole entry, looked up): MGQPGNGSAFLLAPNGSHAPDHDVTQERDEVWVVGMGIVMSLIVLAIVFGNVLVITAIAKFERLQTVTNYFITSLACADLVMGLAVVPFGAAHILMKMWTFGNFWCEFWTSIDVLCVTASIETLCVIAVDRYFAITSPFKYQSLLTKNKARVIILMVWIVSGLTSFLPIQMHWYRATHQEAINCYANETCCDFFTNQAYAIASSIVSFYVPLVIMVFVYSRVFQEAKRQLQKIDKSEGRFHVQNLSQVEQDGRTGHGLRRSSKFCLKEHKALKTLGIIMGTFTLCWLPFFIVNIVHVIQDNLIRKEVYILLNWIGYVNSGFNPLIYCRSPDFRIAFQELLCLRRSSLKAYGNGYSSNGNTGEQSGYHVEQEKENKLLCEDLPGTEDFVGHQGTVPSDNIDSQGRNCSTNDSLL
UCH37 DUB inh: human UCH37 deubiquitinating enzyme inhibition; 330,000 compounds, 0.33% hits; AID 588478; Q9Y5K5; inhibition, % (concentration not given with the values); purified proteasome/UCH37, Ub-AMC cleavage fluorescence;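 active = mean of two replicates above 20%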;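 also: 0% = compound-free wells with enzyme and 100% = wells lacking proteasome; stock transfer was 100 nL into about 20 µL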
Target sequence (Q9Y5K5 whole entry, looked up): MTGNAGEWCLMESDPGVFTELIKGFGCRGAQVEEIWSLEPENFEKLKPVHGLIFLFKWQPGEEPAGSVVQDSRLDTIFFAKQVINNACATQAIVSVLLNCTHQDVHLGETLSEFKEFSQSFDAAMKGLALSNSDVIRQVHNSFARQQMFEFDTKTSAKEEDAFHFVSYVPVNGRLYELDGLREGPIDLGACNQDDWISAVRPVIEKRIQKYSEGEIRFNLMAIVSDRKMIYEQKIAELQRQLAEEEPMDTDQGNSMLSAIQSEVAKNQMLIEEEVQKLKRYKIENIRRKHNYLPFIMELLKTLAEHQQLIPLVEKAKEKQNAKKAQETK
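Test system – human UCH37 enzyme supplied as purified proteasome complex · Incubation – 30 min preincubation with enzyme, 25 min cleavage at room temperature · Detection – AMC fluorescence from Ub-AMC cleavage, excitation 355 nm, emission 460 nm · Benchmarks – no-proteasome wells (full inhibition) and compound-free wells (no inhibition)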
An asterisk follows results filed as active; nt = no result given.

Order of results: Beta cell apopt | A1 inh | B2AR ag | UCH37 DUB inh
CC1CCN(S(=O)(=O)c2ccc(NN=C(C#N)C#N)cc2)CC1
    -1 | -0.2 | nt | nt
COC(=O)C12CCc3c(ccc4cc(OC)ccc34)C1=CC(=O)C2 (stereo unspecified)
    nt | nt | 2 | nt
NCC(=O)c1ccccc1
    nt | nt | -8 | nt
CC(=O)OC1CCC2(C)C(CCC3C4CC(N5CC5)C(C(C)=O)C4(C)CC(=O)C32)C1 (stereo unspecified)
    nt | nt | 8 | nt
CN1C(=O)C(C)(C2=CCCCC2)C(=O)NC1=S (stereo unspecified)
    nt | nt | 0 | nt
CC1=CC2OC3CC4OC(=O)C=CC=CC(C(C)O)OCC(O)C5(C)OC5C(=O)OCC2(CC1O)C4(C)C31CO1 (stereo unspecified)
    nt | nt | 5 | nt
C#CC1(O)CCC2C3CCC4=CC(=O)CCC4=C3C=CC21C (stereo unspecified)
    nt | nt | 8 | nt
C=C1C(C)C2C(Cc3ccccc3)NC(=O)C23OC(=O)/C=C/C(O)CCCC(C)C/C=C/C3C1O (stereo unspecified)
    nt | nt | 20 | nt
Cc1[nH]c2ccccc2c1CN1CCCCC1
    nt | nt | -8 | nt
CC(C)(O)C1C2OC(=O)C1C1(O)CC3OC34C(=O)OC2C14C (stereo unspecified)
    nt | nt | -37 | nt
N#CC1c2ccccc2-n2nncc2CN1C(=O)CCc1ccccc1 (stereo unspecified)
    nt | nt | 2 | nt
CSc1ccccc1NP1(=O)OCC(C)([N+](=O)[O-])CO1 (stereo unspecified)
    nt | nt | 5 | nt
CC1=C(C)CC2(C(=O)NC(=S)NC2=O)C(C)C1 (stereo unspecified)
    nt | nt | -2 | nt
CCC1(c2ccccc2)C(=O)NC(=S)NC1=O
    nt | nt | 0 | nt
COC1CCC(OC2CC(C3(C)CCC4(CC(O)C(C)C(C(C)/C=C(\C)C(=O)C(C)CC(C)C(=O)O)O4)O3)OC3(OC(C4OC(O)(CO)C(C)CC4C)CC3C)C2C)OC1C (stereo unspecified)
    nt | nt | 41 | nt
COc1ccc(S(=O)(=O)N2Cc3cnnn3-c3ccccc3C2C#N)cc1 (stereo unspecified)
    nt | nt | 0 | nt
CC1(C(=O)O)CC12c1ccccc1-c1ccccc12 (stereo unspecified)
    nt | nt | 0 | nt
CC(N)C(=O)NC1C2C(=C(O)CC(O)C2O)C(=O)OC1(C)C(Cl)Cl (stereo unspecified)
    nt | nt | 19 | nt
CC(C)Oc1cccnc1N(C)C1CCN(Cc2ccccc2)CC1
    nt | nt | -1 | nt
Cc1ccccc1CN1Cc2cnnn2-c2ccccc2C1C#N (stereo unspecified)
    nt | nt | 41 | nt

The list continues.
Order of results: Beta cell apopt | A1 inh | B2AR ag | UCH37 DUB inh
CC(=O)OC1CCC2(C)C(=CC(=O)C3C2CCC2(C)C(OC(C)=O)CCC32)C1 (stereo unspecified)
    nt | nt | -13 | nt
O=C(NN=Cc1ccc(N(CCCl)CCCl)cc1)c1cccc([N+](=O)[O-])c1
    nt | nt | -1 | nt
CC1([N+](=O)[O-])COP(=O)(NC2CC2)OC1 (stereo unspecified)
    nt | nt | -2 | nt
O=C1NC2C(=CC(O)C(O)C2O)c2cc3c(cc21)OCO3 (stereo unspecified)
    nt | nt | 12 | nt
O=C1c2ccccc2-c2cccc3cccc1c23
    nt | nt | 19 | nt
CC1=CC2OC3CC4OC(=O)C=CC=CC(C(C)O)OCC(O)C(C)CC(=O)OCC2(CC1O)C4(C)C31CO1 (stereo unspecified)
    nt | nt | 1 | nt
CN1Cc2cnnn2-c2ccccc2C1C#N (stereo unspecified)
    nt | nt | -4 | nt
N#Cc1c(Br)n(C2OC(CO)C(O)C2O)c2ncnc(N)c12 (stereo unspecified)
    nt | nt | -8 | nt
C=C1C(=O)OC2CC3(C)OC3CCC(C)=CC(OC(C)=O)C12 (stereo unspecified)
    nt | nt | -47 | nt
O=c1c([N+](=O)[O-])cn(O)cc1[N+](=O)[O-]
    nt | nt | -5 | nt
CC=C(CC)C1(CC)C(=O)NC(=S)NC1=O
    nt | nt | -2 | nt
O=C1NC(=O)C(=Cc2c(Cl)cccc2Cl)C(=O)N1
    nt | nt | 15 | nt
COc1cc2c(cc1OC)C13CCN4CC5=CCOC(CC(=O)O)C(C5CC41)C3N2 (stereo unspecified)
    nt | nt | -4 | nt
CC1CC2(C)C(CCC3C2CCC2(C)C(OP(=O)(N4CC4)N4CC4)CCC32)CC1=O (stereo unspecified)
    nt | nt | 1 | nt
Cc1nc(C)c(C(=O)NN=Cc2ccc(N(CCCl)CCCl)cc2)s1
    nt | nt | 0 | nt
COC(/C(C)=C/C=C/C(C)=C/c1coc(C)n1)C(C)C1CC(O)C2(C)OC2C=CC(C)C2CC(CC(=O)O2)CC2OC2C(=O)O1 (stereo unspecified)
    nt | nt | 8 | nt
COP(=O)(NC(C)=O)SC (stereo unspecified)
    nt | nt | -6 | nt
C=CC(=O)OCCO
    nt | nt | -5 | nt
COc1ccc(C2=CC(c3ccc4c(c3)OCO4)c3c(c4ccccc4oc3=O)O2)cc1OC (stereo unspecified)
    nt | nt | -13 | nt
CC(=O)OC1C2(CC3N4C(=O)C5(CO)SSC4(CC31O)C(=O)N5C)OC(C)C(C)(C)C2=O (stereo unspecified)
    nt | nt | 10 | nt

Next results follow:
Order of results: Beta cell apopt | A1 inh | B2AR ag | UCH37 DUB inh
O=C(Cc1cc(=O)[nH]c(=O)[nH]1)N1CCN(CCO)CC1
    nt | nt | 9 | nt
Cc1cccc(N2CCC3(CC2)C(=O)NC(=O)NC3=O)c1
    nt | nt | -7 | nt
Cc1ccccc1NC(=NCCCN1CC1)Nc1ccccc1C
    nt | nt | 42 | nt
C[C@]12C=CC(=O)C=C1CC[C@@H]1[C@@H]2CC[C@]2(C)C(=O)CC[C@@H]12
    nt | nt | 1 | nt
O=C1NC2C(=CC(O)C(O)C2O)c2cc3c(c(O)c21)OCO3 (stereo unspecified)
    nt | nt | 36 | nt
CN1CCC(c2c[nH]c3ccc(O)cc23)CC1
    nt | nt | 2 | nt
CC1CN1P1(=O)OCC(C)([N+](=O)[O-])CO1 (stereo unspecified)
    nt | nt | -1 | nt
CC1c2ccccc2-n2nncc2CN1C (stereo unspecified)
    nt | nt | 4 | nt
Cc1ccccc1-c1ccc2n1Cc1cnnn1-c1ccccc1-2
    nt | nt | -5 | nt
CC[C@H]1OC(=O)C[C@@H](O)[C@H](C)[C@@H](O[C@@H]2O[C@H](C)[C@@H](O[C@H]3C[C@@](C)(O)[C@@H](O)[C@H](C)O3)[C@H](N(C)C)[C@H]2O)[C@@H](CC=O)C[C@@H](C)C(=O)/C=C/C(C)=C/[C@@H]1CO[C@@H]1O[C@H](C)[C@@H](O)[C@@H](OC)[C@H]1OC
    nt | nt | 9 | nt
CC(CC(C)(C)N1CC1)=NO
    nt | nt | -5 | nt
CC1c2ccccc2-n2nncc2CN1CC1CCCCC1 (stereo unspecified)
    nt | nt | -2 | nt
CC(=O)OC(C)(C)/C=C/C(=O)[C@](C)(O)[C@H]1[C@H](O)C[C@@]2(C)[C@@H]3CC=C4[C@H](C[C@H](O)C(=O)C4(C)C)[C@]3(C)C(=O)C[C@]12C
    nt | nt | 68* | nt
O=C(Cc1ccccc1)N1CCN(Cc2ccc(Cl)cc2)CC1
    nt | nt | -2 | nt
COc1cc2cc(C(=O)N3CC(COS(C)(=O)=O)c4ccc(O)cc43)[nH]c2c(OC)c1OC (stereo unspecified)
    nt | nt | 22 | nt
CCOP(=S)(OCC)Oc1cc(C)nc(C(C)C)n1
    nt | nt | 6 | nt
CC1([N+](=O)[O-])COP(=O)(Nc2cccc(F)c2)OC1 (stereo unspecified)
    nt | nt | -1 | nt
COc1cc([N+](=O)[O-])c2nc(C)ccc2c1[N+](=O)[O-]
    nt | nt | -4 | nt
COc1ccc(C(=O)NN=CC23CC[C@@H](O)CC2(O)CC[C@@H]2[C@@H]3CCC3(C)C(C4=CC(=O)OC4)CCC23O)cc1 (stereo partly specified)
    nt | nt | nt | 5.6
COC(=O)c1cc(C(O)(C(=O)OC)C(F)(F)F)c(N=CN(C)C)s1 (stereo unspecified)
    nt | nt | nt | 7.8

Following part.
Order of results: Beta cell apopt | A1 inh | B2AR ag | UCH37 DUB inh
NC(=S)NN=Cc1coc2ccccc2c1=O
    nt | nt | nt | -0.5
CNC(=O)ON=C(C)Cc1nnn(-c2cc(C)on2)n1
    nt | nt | nt | 0.8
NC(=N[N+](=O)[O-])N1CCN(C(=O)c2ccccn2)CC1
    nt | nt | nt | 1.1
CCOC(=O)c1c(N=CC2C(=O)NC(=O)NC2=O)sc2c1CCC2
    nt | nt | nt | 1.4
NC(=N[N+](=O)[O-])N1CCN(C(=O)c2ccccc2)CC1
    nt | nt | nt | 2.5
NC(=N[N+](=O)[O-])N1CCN(C(=O)OC2CCCC2)CC1
    nt | nt | nt | 1.0
Oc1cccc(C=NNP(=S)(c2ccccc2)c2ccccc2)c1
    nt | nt | nt | 1.3
C#C[C@]1(O)CCC2C3CCC4=CC(=NOCC(=O)NC(C)C(=O)NC(CCSC)C(=O)O)CC[C@]4(C)C3CC[C@@]21C (stereo partly specified)
    nt | nt | nt | -1.3
CC(=O)O[C@@H]1C=C[C@](C)(O)C[C@@H](C)CC=C[C@H]2[C@H](O)[C@@](C)(O)[C@@H](C)[C@H]3[C@H](Cc4ccccc4)NC(=O)[C@@]312
    nt | nt | nt | 5.1
CC(=O)C1C2c3ccccc3OC1(C)N=c1sc(=Cc3cnn(C)c3)c(=O)n12 (stereo unspecified)
    nt | nt | nt | 2.2
CC(=NNP(=S)(c1ccccc1)c1ccccc1)c1ccc(O)cc1O
    nt | nt | nt | 5.0
O=C(CSC1c2ccccc2-c2ccccc21)NN=Cc1ccc(C(=O)O)cc1
    nt | nt | nt | 1.9
CCOC(=O)c1cc(C)sc1N=CC1C(=O)NC(=S)NC1=O
    nt | nt | nt | 3.2
C=CCN1CC[C@]23c4c5ccc(O)c4O[C@H]2C(=NNC(=O)c2ccccc2)CC[C@@]3(O)[C@H]1C5
    nt | nt | nt | 4.4
C[C@H]1CCCC=CC2C[C@H](O)CC2[C@H](O)C=CC(=O)O1 (stereo partly specified)
    nt | nt | nt | 0.4
NC(=N[N+](=O)[O-])N1CCN(C(=O)Oc2ccccc2)CC1
    nt | nt | nt | 3.6
COc1ccc2c(c1)[C@]13CCCC[C@@H]1[C@H](C2)N(C)CC3
    nt | nt | nt | 4.1
Oc1ccc(C=NNP(=S)(c2ccccc2)c2ccccc2)cc1O
    nt | nt | nt | 2.6
FC(F)(F)C(=NP(=S)(N1CCOCC1)N1CCOCC1)N1CCOCC1
    nt | nt | nt | -1.8
CC12CC[C@H]3[C@@H](CCC4(O)C[C@H](O)CCC34C=NNC(=O)c3ccccc3O)C1(O)CCC2C1=CC(=O)OC1 (stereo partly specified)
    nt | nt | nt | -5.3

One compound at a time, as listed above. Order of screens: Beta cell apopt | A1 inh | B2AR ag | UCH37 DUB inh
`Oc1ccc(C=NNP(=S)(c2ccccc2)c2ccccc2)cc1O` reads nt | nt | nt | 2.6
`C[C@H]1CCCC=CC2C[C@H](O)CC2[C@H](O)C=CC(=O)O1` (stereo partly specified) reads nt | nt | nt | 0.4
`CC1=CC2OC3CC4OC(=O)C=CC=CC(C(C)O)OCC(O)C(C)CC(=O)OCC2(CC1O)C4(C)C31CO1` (stereo unspecified) reads nt | nt | 1 | nt
`O=C(CSC1c2ccccc2-c2ccccc21)NN=Cc1ccc(C(=O)O)cc1` reads nt | nt | nt | 1.9

More records follow.
Order of results: Beta cell apopt | A1 inh | B2AR ag | UCH37 DUB inh
C=C1[C@@H](O)[C@]23C[C@@H]1[C@@H](O)C[C@H]2[C@@]12C4[C@@H]3C[C@@H]1[C@@](C)(CC[C@@H]2O)CN4CC
    nt | nt | nt | 3.4
O=C(NN=CC1C(=O)NC(=S)N(c2ccccc2)C1=O)c1ccc(O)cc1 (stereo unspecified)
    nt | nt | nt | 0.7
O=P(C(=NO)N1CCOCC1)(N1CCOCC1)N1CCOCC1
    nt | nt | nt | 6.8
C=C(C)CC1(CC)C(=O)NC(=S)NC1=O
    nt | nt | nt | 2.1

An excerpt from above in order of length of the SMILES, highest first.
Order of results: Beta cell apopt | A1 inh | B2AR ag | UCH37 DUB inh
C[C@H]1CCCC=CC2C[C@H](O)CC2[C@H](O)C=CC(=O)O1 (stereo partly specified)
    nt | nt | nt | 0.4
Cc1ccccc1NC(=NCCCN1CC1)Nc1ccccc1C
    nt | nt | 42 | nt
COP(=O)(NC(C)=O)SC (stereo unspecified)
    nt | nt | -6 | nt

An excerpt. The share of hits here may be higher or lower than overall.
